High-throughput results deposited in PubChem by several laboratories.
MT1-MMP act inh: inhibitors of human MT1-MMP activation; P50281; HT1080 RFP-PRO-GFP cells, GFP/RFP ratio fluorescence, overnight; percent of plate control window, DMSO zero; GFP/RFP ratio change, % at 20 µM; 0.061% of 360,000 active;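 active = GFP/RFP ratio change of at least 30% with cell ATP level not reduced by more than half and red fluorescence within 50% of control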; also: strong numbers were not always called active
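Assay system: RFP-PRO-GFP reporter HT1080 cells; read-out basis: GFP/RFP fluorescence ratio; benchmarks: DMSO wells and RFP-L50D-GFP cells; doses: 20 µM single dose, 1% DMSO; schedule: overnight cell settling, then overnight compound exposure, 37 °C, 5% CO2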
CSC inhib: cancer stem cell inhibition; cancer stem cell-like cells viability, luminescence; inhibition, % at 7.5 µM; 1.1% of 300,000 active;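 active = mean at 75% or more and at least half the replicates too; inconclusive = mean and replicates disagree; tested in HMLE shEcad cells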;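 also: 0% = median of negative and 100% = median of positive control wells; the first replicate is given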
Env fusion inh: HIV envelope-mediated fusion inhibition; HeLa-JRFL Env/CEM21 cell fusion, luciferase; inhibition, % at 12.3 µM; 1.1% of 360,000 active; AID 651610;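 active = mean replicate inhibition score of at least 50 and every replicate individually at or above 50; inconclusive = only one of the two criteria met; inactive = mean below 50 and not all replicates reaching 50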;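 also: 0% = plate neutral controls and 100% = maraviroc near 300 nM; one replicate is shown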
PABP polyA inh: PABP-poly(A) binding inhibition | AID 2014 | 1% of 290,000 active | inhibition, % at 35 µM | PABP-poly(A) RNA binding, fluorescence polarization;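 active = 50% or more with normal probe brightness, or confirmed in later tests; inconclusive = above 50% with abnormal brightness, or retests that disagree; inactive = below 50% or failed in later tests; about a fifth of its hits are not listed in these tables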;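 also: calls also rest on retests at 20 µM and on dose response follow-up; controls were probe without protein and protein plus probe with vehicle; some compounds called inactive have numbers as strong as hits; many hits fall short of the cut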
Target sequence (P11940 whole entry, looked up): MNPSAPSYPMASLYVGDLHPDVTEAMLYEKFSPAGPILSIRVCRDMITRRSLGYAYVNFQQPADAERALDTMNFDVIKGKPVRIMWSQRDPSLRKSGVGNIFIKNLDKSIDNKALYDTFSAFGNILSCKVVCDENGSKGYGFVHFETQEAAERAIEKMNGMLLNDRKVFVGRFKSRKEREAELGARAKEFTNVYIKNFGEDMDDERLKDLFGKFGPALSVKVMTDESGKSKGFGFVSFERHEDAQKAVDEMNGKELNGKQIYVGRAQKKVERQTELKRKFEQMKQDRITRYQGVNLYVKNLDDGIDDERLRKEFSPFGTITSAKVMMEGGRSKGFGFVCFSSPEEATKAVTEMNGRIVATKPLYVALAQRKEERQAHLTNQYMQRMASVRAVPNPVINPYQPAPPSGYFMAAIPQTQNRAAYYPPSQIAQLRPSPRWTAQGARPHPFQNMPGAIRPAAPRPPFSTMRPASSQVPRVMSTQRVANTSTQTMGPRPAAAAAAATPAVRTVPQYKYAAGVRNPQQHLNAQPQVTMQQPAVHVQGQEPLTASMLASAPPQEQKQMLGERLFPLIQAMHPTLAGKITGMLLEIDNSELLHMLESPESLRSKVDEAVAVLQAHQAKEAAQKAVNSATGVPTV
UUG fidelity: alters start codon recognition fidelity in yeast; S. cerevisiae UUG-firefly luciferase reporter, luminescence/redox ratio; 0.13% of 350,000 active; activity score, % at 18.7 µM;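 active = replicate mean at a twofold rise or more, about +100% in these data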;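 also: firefly luciferase made from a UUG start codon reports start codon fidelity; reporter light over untreated wells divided by growth signal over untreated wells; some hits fall short of that in this replicate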
Rce1 inh: yeast Ras-converting enzyme inhibition. yeast membranes, quenched prenylated peptide cleavage fluorescence. calls only. 0.27% of 290,000 active;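 active = fall in fluorescence gain of 50% or more versus controls, with final raw signal at or below 3038400; inconclusive = same 50% fall but final raw signal above 3038400; inactive = fall in fluorescence gain under 50%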;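 also: plate controls were neutral control wells for no effect and wells lacking membranes for full effect; tested at 10 µM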
eIF4H FP inh: inhibitors of RNA binding by human eIF4H. 0.94% of 290,000 active. eIF4H fluorescence polarization binding assay. inhibition, % at 35 µM. Q15056;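 active = 50% or more with normal probe brightness, or confirmed in later tests; inconclusive = above 50% with abnormal brightness, or retests that disagree; inactive = below 50% or failed in later tests; about a fifth of its hits are not listed in these tables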;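 also: calls also rest on retests at 20 µM and on dose response follow-up; 0% = protein and probe with vehicle and 100% = probe without protein; strong numbers were not always called active; many hits fall short of the cut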
MT1-MMP act inh RFP: further read-out of MT1-MMP act inh, marked with its call; RFP signal change, %; measured here: RFP expression control read;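 0 = vehicle wells; hits needed this value within 50% of zero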
The depositor's hits bear a star; i = inactive; u = inconclusive; x = not tested or not shown.

SMILES	MT1-MMP act inh	MT1-MMP act inh RFP	CSC inhib	Env fusion inh	PABP polyA inh	UUG fidelity	Rce1 inh	eIF4H FP inh
CCCCNC(C(=O)Nc1ccc(Cl)c([N+](=O)[O-])c1)c1ccccc1 (stereo unspecified)	2	2	x	x	-10	x	i	-6
CC(C)Cc1ccc(C(C)C(N)=NCCc2ccccc2)cc1 (stereo unspecified)	-26	-24	59	76*	8	-7	i	-6
Cc1nc(NCC2CCCO2)c2nnn(Cc3ccccc3)c2n1 (stereo unspecified)	2	0	-2	x	-2	x	i	1
Cc1nn(-c2ccccc2)c(N2CCCCC2)c1/C=N/O	-7	-12	164*	x	-5	-9	i	-1
COc1cc(OC)cc(C(=O)N[C@H](C(=O)Nc2ccc3c(c2)OCO3)C(C)C)c1	-21	-18	-10	-5	6	-5	i	-2
S=c1nc(C2CC2)[nH]c2ccccc12	-4	5	6	x	6	-18	i	3
CCOc1ccc(C(=O)Cc2cc3cccc(OC)c3oc2=O)cc1	0	-7	1	-18	0	-15	i	0
CC(C)NC(=O)NC(=O)COc1cccc2c1OC(C)(C)C2	2	7	-12	x	5	x	x	6
COC(=O)C1=C(C)NC(=O)/C1=C\c1cc(C)n(-c2ccc(F)cc2)c1C	-9	3	2	-44	43	x	i	30
Cc1ccc(S(=O)(=O)N2CCC(C(=O)Nc3nnc(-c4ccc(F)cc4)s3)CC2)cc1	8	0	-8	-24	-11	x	i	-7
CCCC(=O)NCCc1nc2ccccc2n1CCC	5	9	-11	10	2	-11	i	0
O=C(c1ccccc1)N1CCN(C(=O)c2ccccc2)CC1	0	4	x	x	2	11	i	6
CN(Cc1ccccc1)C(=O)c1ccco1	4	0	5	-18	-2	-6	i	-8
C=CCOc1ccc(C=NNc2ccc(S(=O)(=O)Nc3ccccc3C(=O)O)cc2[N+](=O)[O-])cc1OC	13	-3	12	x	x	-40	x	x
CN1C(C(=O)NCC2CC2)CC2Cn3c(nc4ccccc43)C21 (stereo unspecified)	-2	2	26	u	x	-11	i	x
O=C(COC(=O)c1ccc[n+]([O-])c1)Nc1ccc([N+](=O)[O-])cc1C(F)(F)F	-3	-2	11	x	x	-24	x	x
Cc1cc(NC(=O)CCCC(=O)O)nc(C)n1	6	8	-3	-29	11	-3	i	-6
CN1CCN(c2oc(-c3ccccc3)nc2S(=O)(=O)c2ccccc2)CC1	1	-1	x	24	x	-12	x	x
Cc1ccc(NC(=O)CSCC(=O)N2CCN(C(=O)c3ccco3)CC2)cc1	6	8	5	x	x	-14	x	x
Cc1nc(Cc2nnc(SC(C)C(=O)Nc3cccc(C#N)c3)o2)cs1 (stereo unspecified)	-1	3	-5	x	x	x	i	x
CCCn1c(SCC(=O)Nc2nnc(C)s2)nnc1-c1ccoc1C	-5	-1	2	3	24	-11	i	-1
CCc1ccc2c(COC(=O)CNS(=O)(=O)c3ccc(NC(C)=O)cc3)cc(=O)oc2c1	4	5	-19	21	-7	-9	i	4
O=C1CNC(=O)N1Cc1ccc(Br)cc1	x	x	-11	x	-6	x	i	2
COc1ccc(Br)cc1CNC(C)c1ccccc1 (stereo unspecified)	3	4	16	21	-3	x	i	-3
O=C(CNC(=O)Cc1ccccc1)NCc1cccs1	-2	-3	x	-1	x	1	x	x
(further entries)
SMILES	MT1-MMP act inh	MT1-MMP act inh RFP	CSC inhib	Env fusion inh	PABP polyA inh	UUG fidelity	Rce1 inh	eIF4H FP inh
O=C(c1ccc(CN2CCOCC2)cc1)N1CCC(Cc2ccccc2)CC1	1	1	14	9	6	10	i	-12
OC(CN(Cc1ccccc1)Cc1ccccc1)c1ccccc1 (stereo unspecified)	-7	-2	x	-18	x	-11	x	x
COCc1nnc(NS(=O)(=O)c2ccc(F)cc2)s1	2	3	1	15	2	-6	i	-8
COc1ccc(N/N=C(\C#N)C(=O)NCCc2ccc(OC)c(OC)c2)cc1	6	-2	x	1	-7	x	i	-4
CC1CCN(C(=O)c2ccc(NC(=O)c3cccs3)cc2)CC1	3	-2	-18	-6	9	-2	i	-3
COc1ccc(-c2nn(-c3ccccc3)cc2C(=O)N2CCN(S(=O)(=O)c3ccccc3[N+](=O)[O-])CC2)cc1	1	-3	x	3	x	-10	x	x
COc1ccc(C(=O)N/C(=C/c2ccccc2F)C(=O)NCCN2CCOCC2)cc1OC	3	6	1	2	-10	-6	i	-22
COc1ccc2nc(SCC(=O)c3c(N)n(C4CC4)c(=O)[nH]c3=O)[nH]c2c1	1	1	x	-3	x	-8	x	x
O=C(NC(=S)Nc1ccc2c(c1)OCO2)c1ccc(Cl)cc1	7	0	-11	-230	4	x	i	-1
CCOC(=O)C1=C(Cc2ccc(C)cc2)C(=O)c2ccccc2C1=O	x	x	20	x	22	x	i	3
CC(=O)NCCNc1nc2cc(-c3ccc4c(ccn4C)c3)sc2c(=O)n1C	3	-4	x	-16	x	-11	x	x
Cc1ccc(NC(=O)C(NS(=O)(=O)c2cccc3nsnc23)C(C)C)nc1 (stereo unspecified)	0	6	-7	-1	5	-2	i	5
CC[C@H](C)Cc1cn([C@@H](CCCN=C(NC(=O)OC(C)(C)C)NC(=O)OC(C)(C)C)C(=O)NCCCCCCCCCCC(=O)N2CCN(C(=O)OC(C)(C)C)CC2)nn1	-7	-17	43	x	x	2	i	x
Cc1cc2c(cc1C)NC(=O)C(C)CN2 (stereo unspecified)	0	4	x	-184	x	-24	x	x
COCCN=C1NN=C(c2ccc(NC(C)=O)cc2)CS1	0	-1	1	-6	-7	x	i	-6
COc1ccc(C)cc1S(=O)(=O)N(CC(=O)Nc1cccc([N+](=O)[O-])c1)c1ccc(C)cc1	0	-2	22	-12	-5	x	i	-3
Cc1c(Cl)c(C(F)(F)F)nn1CC(=O)N1CCSCC1	2	6	2	x	5	-10	i	-3
O=C(CCNC(=O)c1ccc([N+](=O)[O-])cc1)Nc1ccccc1N1CCCC1	5	2	-6	28	-13	-14	x	-6
Cc1cscc1-c1cc2nc(NCCCN(C)C)n(C)c(=O)c2s1	-1	6	x	5	x	-3	x	x
c1ccc(CSc2nnc(NC3=NCCCCC3)s2)cc1	-8	-11	-2	-48	-5	-8	i	-10
Cc1c(C(=O)OC(C)CCN(C)C)oc2ccccc12 (stereo unspecified)	-1	2	-2	-35	-4	-13	x	8
O=C(/C=C/c1ccc(OC(F)F)cc1)Nc1cccc(S(=O)(=O)N2CCOCC2)c1	-5	-28	-18	19	14	2	i	-8
CC(NC(=O)Nc1ccc(Br)cc1)C(C)(C)C (stereo unspecified)	-2	5	2	-4	1	x	i	2
COc1ccc(NC(=O)CSc2nnnn2C2CCCCC2)c(OC)c1	-3	-2	x	3	9	-16	i	-3
O=C(Cn1cc(C(=O)C(F)(F)F)c2ccccc21)NCc1ccco1	-3	-5	-16	9	5	x	i	11
Next section.
SMILES	MT1-MMP act inh	MT1-MMP act inh RFP	CSC inhib	Env fusion inh	PABP polyA inh	UUG fidelity	Rce1 inh	eIF4H FP inh
NS(=O)(=O)c1ccc(N/N=C/c2ccc[nH]2)c([N+](=O)[O-])c1	x	x	5	-38	11	x	i	-4
OCCN(CCCn1c(-c2ccncc2)nc2ccccc21)c1nc(CN2CCCCC2)cs1	-7	-2	-11	21	-3	-12	i	-6
CN(C(=O)COC(=O)c1ccc(Br)c([N+](=O)[O-])c1)c1c(N)n(Cc2ccccc2)c(=O)[nH]c1=O	1	1	0	16	x	x	i	x
CCOC(=O)C(CO)(NC(C)=O)C(=O)OCC	0	2	-9	-131	0	-4	i	-8
Cc1ccc(S(=O)(=O)N2CCC(n3nnc4cc(C)ccc43)CC2)cc1	3	-5	-5	-2	43	5	i	7
CSCCCc1cn([C@@H](CO)C(=O)NCCCCCCCCCCC(=O)N2CCNCC2)nn1	2	-3	-5	-2	x	3	i	x
CC(=O)Nc1cc(-c2cccc(C(=O)NCCN(C)C)c2)cn2c(-c3ccccc3)cnc12	6	2	x	-4	x	-5	x	x
CC(OC(=O)C1CC(=O)N(Cc2ccccc2)C1)C(=O)Nc1ccc(F)cc1Cl (stereo unspecified)	-1	2	-12	7	x	x	i	x
COCCCNC(=O)c1ccc(-c2csc(C)n2)cc1	-6	-3	4	-1	-8	x	x	6
COC(=O)c1ccc(OCCN2CCCCCC2)cc1	0	2	-3	1	-7	x	i	14
NC(=O)CSc1oc(-c2cccs2)nc1S(=O)(=O)c1ccccc1	-1	0	-12	x	28	-12	i	7
O=C(NNC(=O)c1ccc(Oc2cc(Cl)cc(Cl)c2)o1)c1ccccc1	-1	3	28	-1	-14	x	i	0
c1cn(CCCNC2=NCCCCC2)cn1	2	4	-14	-59	-8	-4	i	-7
O=C(CCc1nnc(CCCc2ccccc2)o1)NCCc1ccco1	3	2	-7	-30	3	x	i	1
O=C(CCCn1c(SCC(=O)NCC2CCCO2)nc2ccccc2c1=O)NCc1ccccc1 (stereo unspecified)	5	3	-7	-17	1	-17	i	1
CCN(CC(=O)NCc1ccc(Cl)cc1)C(=O)/C=C/c1ccc(C#N)cc1	-6	-3	12	34	15	-8	i	-9
Cc1ccc2[nH]c(=O)c(CN(Cc3nnnn3Cc3ccccc3)C3CCCC3)cc2c1	-4	-4	-5	x	4	-3	i	-11
N#CCCn1cc(/C=N/NC(=O)c2ccncc2)c(-c2ccccc2)n1	0	3	-3	-56	8	-15	i	0
O=C(N/N=C/c1cc([N+](=O)[O-])cc([N+](=O)[O-])c1O)/C(=C\c1cccs1)NC(=O)c1ccccc1	7	4	4	21	-2	-11	i	34
COCCNC(=O)CN(Cc1ccc(F)cc1)C(=O)CCC(=O)Nc1nccs1	0	5	10	-2	2	-10	i	-11
